GALR2 ag – activates the human galanin receptor 2; O43603; GALR2-expressing cells, agonist activation read-out; activation, %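 (tested at 5 µM)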; 140,000 tested, 0.48% active;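 active = above mean plus 3 SD of all compounds, about 5% in these data, not always enough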;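 note: 0% = vehicle buffer wells and 100% = reference agonist at full effect; tested in CHO reporter cells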
HSV augment – HSV replication enhancement. HSV replication augmentation in cells, fold increase. maximum fold increase. 220,000 tested, 0.005% active. AID 1956;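 active = peak rise of 1.5-fold or more in the series; inconclusive = self-fluorescent or not available for retest; tested in PC3 cells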;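 note: first round at 10 µM; read as green reporter fluorescence; hits show the peak of a series up to 25 µM; 1 = signal of infected wells without compound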
INS promoter inh – TRM-6 insulin promoter activity inhibition; TRM-6 cells (human fetal islet line), insulin promoter-eGFP reporter, imaging; reporter expression induced with tamoxifen; inhibition, % at 2 µM; 130,000 tested, 0.9% active; AID 1273;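 active = inhibition above the mean plus 3 SD, with well images judged a real hit on visual review, cut at about 60% in these data, passing the limit was not always enough; inconclusive = inhibition over the cutoff but images rejected on review; inactive = inhibition not above the cutoff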
PKD1 kinase inh – blocks activity of human protein kinase D1. AID 797. PKD1 kinase fluorescence polarization assay. inhibition, %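 (about 10 µM by stock and volumes)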. 200,000 tested, 0.056% active. Q15139;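 active = inhibition of 50% or more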;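 note: controls were vehicle for no effect and a reference inhibitor for full effect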
Target sequence (Q15139 whole entry, looked up): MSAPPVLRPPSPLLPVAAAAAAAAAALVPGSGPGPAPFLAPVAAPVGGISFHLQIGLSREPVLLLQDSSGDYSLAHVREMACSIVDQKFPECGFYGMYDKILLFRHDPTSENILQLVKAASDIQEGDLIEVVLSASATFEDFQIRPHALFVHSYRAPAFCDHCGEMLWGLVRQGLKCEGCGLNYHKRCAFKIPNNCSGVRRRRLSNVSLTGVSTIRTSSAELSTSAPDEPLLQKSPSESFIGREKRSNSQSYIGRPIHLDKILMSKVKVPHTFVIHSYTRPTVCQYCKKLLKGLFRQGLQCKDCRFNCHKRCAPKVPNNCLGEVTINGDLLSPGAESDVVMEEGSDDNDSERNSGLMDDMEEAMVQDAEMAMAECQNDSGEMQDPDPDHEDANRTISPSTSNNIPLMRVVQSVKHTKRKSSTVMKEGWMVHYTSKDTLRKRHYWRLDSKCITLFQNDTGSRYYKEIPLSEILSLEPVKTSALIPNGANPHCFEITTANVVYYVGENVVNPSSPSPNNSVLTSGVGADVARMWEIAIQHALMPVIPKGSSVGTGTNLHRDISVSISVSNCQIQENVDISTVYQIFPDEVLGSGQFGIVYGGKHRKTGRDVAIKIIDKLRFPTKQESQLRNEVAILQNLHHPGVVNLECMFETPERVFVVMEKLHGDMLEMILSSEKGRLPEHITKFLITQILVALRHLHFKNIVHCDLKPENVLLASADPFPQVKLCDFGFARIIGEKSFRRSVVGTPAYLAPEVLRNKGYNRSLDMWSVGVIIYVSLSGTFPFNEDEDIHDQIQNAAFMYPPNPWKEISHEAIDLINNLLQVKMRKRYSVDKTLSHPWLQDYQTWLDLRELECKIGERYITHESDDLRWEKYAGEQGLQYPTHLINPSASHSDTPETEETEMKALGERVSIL
RGS16-Gao HTS – modulates binding between human RGS16 and Galphao | O15492+P09471 | bead-based flow cytometry RGS16-Galphao binding, fluorescence; actives lie on both sides | binding response (% of control), % at 10 µM | 220,000 tested, 0.38% active;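 active = below 25% or above 175%, edge rows of some plates excepted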;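 note: Galphao activated by GDP with aluminum fluoride before binding; 100% = wells without compound and 0% = beads without RGS; some results beyond the cut were filed as inactive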
INS promoter inh cell count – second read-out of INS promoter inh, no call of its own (marks repeat the call); normalized cell count, %; measured here: cell count, toxicity; reference of the scale not given here;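 cells exposed to compound for 48 h; stained nuclei by imaging scaled within each plate; lower means fewer cells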
HSV augment primary fold – further read-out of HSV augment, marked with its call; fold increase; compound at 10 µM; measured here: primary screen fold increase 10 uM; tested in PC3 cells;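 GFP signal in the first replicate; 1 = infected wells without compound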
Starred values were filed as active, the others as inactive; i = inactive; ? = inconclusive; · = no result given.

SMILES	GALR2 ag	HSV augment	HSV augment primary fold	INS promoter inh	INS promoter inh cell count	PKD1 kinase inh	RGS16-Gao HTS
COc1ccccc1CNn1c(-c2cccc(C)c2)nc2ccccc2c1=O	-0.8	i	0.89	-37	112	8	122
CCc1ccc(CNn2cnnc2SCC(=O)NC(C)(C)C)cc1	-2.5	i	0.89	-56	122	-5	94
NC(=O)CC(NC(=O)Cc1ccc(Br)cc1)c1ccc(NCc2ccccn2)c([N+](=O)[O-])c1 (stereo unspecified)	·	i	0.89	·	·	·	104
CCN(CC)c1cc(C(F)(F)F)nc(-c2ccccn2)n1	-1.7	i	0.75	-4	106	-12	90
Cn1c(C2CCCCC2)nc2c1c(=O)[nH]c(=O)n2Cc1ccccc1	·	i	0.91	·	·	-1	108
Cc1cc(C)c2nc(NC(=O)c3cccc(S(=O)(=O)N4CCc5ccccc54)c3)sc2c1	1.0	i	1.1	32	116	-2	104
Clc1ccc(-c2ccc(C=Nc3ccc(N4CCOCC4)cc3)o2)c(Cl)c1	·	i	0.91	·	·	-1	104
CCCc1cc(=O)[nH]c(SCC(=O)N(CC)Cc2ccccc2)n1	-2.9	i	1	·	·	1	60
CCC(c1nnnn1C(C)(C)C)N1CCN(Cc2ccccc2OC)CC1 (stereo unspecified)	·	i	0.93	·	·	-7	110
Cc1nc(C)c(C(=O)C2=C(O)C(=O)N(CCCn3ccnc3)C2c2ccc(Cl)cc2)s1 (stereo unspecified)	-7.2	i	0.98	·	·	4	104
S=C(NCc1ccco1)N1CCN(c2cccc(Cl)c2)CC1	·	i	1.1	·	·	8	94
CCOc1ccccc1Nc1nnc(SCC(=O)N2CCCC2)s1	0.3	i	1	-33	159	-3	99
CCc1nnc(NC(=O)CSc2nc3cc4c(cc3cc2C)OCCO4)s1	-1.4	i	0.9	11	110	2	100
COCCNc1nc2nonc2nc1N(C)Cc1ccc(C)cc1	·	i	1	·	·	0	97
Cc1ccc(NC(=O)Nc2sc(=S)n(C)c2C)cc1	-2.0	·	·	16	129	-7	95
CCOc1ccc(CCNC(=O)CCS(=O)(=O)c2ccc(OC)cc2)cc1OCC	·	i	0.95	-57	88	-6	99
CCOCc1nnc(NC(=O)CCc2ccccc2)s1	0.6	i	0.91	26	69	-11	98
Cc1nnc(NC(=O)c2cccc(Br)c2)s1	-2.4	i	0.94	-22	110	0	97
COc1ccc(C(CC(=O)N2CCCCC2)c2c(OC)cc(OC)c3c(-c4ccccc4)cc(=O)oc23)cc1 (stereo unspecified)	·	i	0.83	·	·	·	91
Cc1ccccc1-n1cc[nH]c1=S	·	i	0.88	·	·	-6	94
Cc1nc(CCN2C(=O)c3ccccc3C2=O)cs1	-2.9	i	0.87	13	112	-16	92
NC(=O)CCC(=O)N1CCCC(C(=O)c2ccc3c4c(cccc24)CC3)C1 (stereo unspecified)	·	i	1	-30	95	-2	106
Oc1c(C(c2ccco2)N2CCC3(CC2)OCCO3)sc2ncnn12 (stereo unspecified)	-4.6	i	0.83	·	·	-8	107
O=C(Cc1ccccc1)Nc1ccc2c(c1)C(=O)N(CC1CCCO1)C2=O (stereo unspecified)	·	i	1.1	·	·	1	100
CCn1c(=O)cc(SCC(=O)NCc2ccc(C)cc2)c2ccccc21	1.8	i	1	-21	91	-6	97

Single values from the list:
For HSV augment primary fold, `CCCc1cc(=O)[nH]c(SCC(=O)N(CC)Cc2ccccc2)n1` reads 1
For RGS16-Gao HTS, `COc1ccc(C(CC(=O)N2CCCCC2)c2c(OC)cc(OC)c3c(-c4ccccc4)cc(=O)oc23)cc1` (stereo unspecified) reads 91
For INS promoter inh cell count, `CCOCc1nnc(NC(=O)CCc2ccccc2)s1` reads 69
For INS promoter inh, `CCc1ccc(CNn2cnnc2SCC(=O)NC(C)(C)C)cc1` reads -56
For INS promoter inh, `Cc1cc(C)c2nc(NC(=O)c3cccc(S(=O)(=O)N4CCc5ccccc54)c3)sc2c1` reads 32
For HSV augment primary fold, `Clc1ccc(-c2ccc(C=Nc3ccc(N4CCOCC4)cc3)o2)c(Cl)c1` reads 0.91

Further entries
SMILES	GALR2 ag	HSV augment	HSV augment primary fold	INS promoter inh	INS promoter inh cell count	PKD1 kinase inh	RGS16-Gao HTS
COc1ccc(/C=c2/sc3n(c2=O)C(c2ccccc2OC)C2=C(N=3)c3ccccc3CC2)cc1O (stereo unspecified)	-2.9	i	0.68	-29	19	-5	102
Cc1ccc(NC(=S)N(CCCN2CCOCC2)Cc2ccccn2)cc1	0.2	i	1	9	105	-1	117
CCC(=O)N1CCN(c2ccccc2NC(=O)COc2cccc(C)c2)CC1	-0.1	i	0.93	32	68	2	99
CN1CCN(S(=O)(=O)c2ccc(NC(=S)NC(=O)C3CCCCC3)cc2)CC1	·	i	0.85	33	93	-11	105
CC1CN(C(=O)CN2C(=O)NC(C)(c3ccccc3)C2=O)CC(C)O1 (stereo unspecified)	-1.4	i	0.85	29	88	-1	110
CC(C)(C)NC(=O)COC(=O)c1ccc(O)cc1	0.4	i	0.9	-32	44	-2	94
O=C(Nc1nc(-c2ccc3ccccc3c2)cs1)C1CCN(S(=O)(=O)c2cccs2)CC1	-1.1	i	0.88	-14	53	3	104
Cc1cccc(OCCCC(=O)NCCc2ccccc2)c1	-1.1	i	0.95	-6	104	-6	101
CCCC(=O)Oc1c(S(=O)(=O)c2ccc(C)cc2)c(C)nn1C(C)(C)C	·	i	0.81	-36	83	7	98
CCCC/C(C)=N/NC(=O)NC1CCCCC1	0.5	i	0.89	·	·	1	101
CS(=O)(=O)N(CC(=O)Nc1ccccc1-c1ccccc1)c1cccc(F)c1	·	i	0.93	-50	102	1	100
Cc1cc(C)cc(NC(=O)CN2CCN(CCN=CC3=C(O)CC(c4ccc(Cl)cc4)CC3=O)CC2)c1 (stereo unspecified)	·	i	0.96	·	·	-3	101
O=C(NN=C1CCCCCC1)c1c[nH]c2ccccc12	-0.8	i	0.96	-40	163	-11	103
NS(=O)(=O)c1cccc(NC(=S)NCc2ccc3c(c2)OCO3)c1	·	i	0.88	-14	153	1	104
Cc1ccc(NC(=O)c2ccccc2N(C)S(C)(=O)=O)cc1C	-1.7	i	0.85	-23	69	-5	98
Cc1ccc2nc(N3CCN(S(=O)(=O)c4ccc5c(c4)OCCO5)CC3)c(C#N)cc2c1	-2.5	i	0.91	6	118	0	106
O=C(NCCOCc1ccc(Cl)cc1)c1ncn[nH]1	0.5	i	0.69	41	73	-10	100
N#C/C(=C\c1ccc(O)cc1)c1nc2ccccc2o1	·	?	·	·	·	·	101
Cc1nc2cc(C(F)(F)F)ccc2n1C1CCN(CC(=O)N2CCCC2)CC1	·	i	1	·	·	-3	110
N#C/C(=C\c1cccc(O)c1)C(=O)Nc1ccc2c(c1)OCCO2	·	i	0.93	·	·	·	91
O=C(Nc1cccc(C(=O)O)c1)/C(=C\c1ccc2c(c1)OCO2)NC(=O)c1ccccc1	·	i	1	36	60	-7	100
COc1ccc(OCCCC(=O)Nc2nc(C)c(C(C)=O)s2)cc1	·	i	0.94	·	·	1	109
O=C(NCCc1ccccn1)c1cccnc1Oc1ccc(Cl)cc1	·	i	0.87	·	·	·	106
COc1cc(OC)cc(-c2ncc3ccccn23)c1	-1.6	i	1	-57	138	-11	85
Cn1c(SCC(=O)NCC2CCCO2)nnc1-c1ccc(S(=O)(=O)N2CCCC2)cc1 (stereo unspecified)	0.4	i	1	43	83	-9	101

Next section (two carried over from the part before).
SMILES	GALR2 ag	HSV augment	HSV augment primary fold	INS promoter inh	INS promoter inh cell count	PKD1 kinase inh	RGS16-Gao HTS
COc1cc(OC)cc(-c2ncc3ccccn23)c1	-1.6	i	1	-57	138	-11	85
Cn1c(SCC(=O)NCC2CCCO2)nnc1-c1ccc(S(=O)(=O)N2CCCC2)cc1 (stereo unspecified)	0.4	i	1	43	83	-9	101
Nc1ccc(Sc2ccc([N+](=O)[O-])cc2)cc1	·	i	1.1	28	123	4	104
COC(=O)c1cccc(S(=O)(=O)N2CCC(C)CC2)c1	-2.1	i	1	46	112	9	104
O=C(CSCc1c(Cl)cccc1Cl)NCc1ccco1	-1.4	i	0.88	-235	89	-4	96
COc1ccc(NC(=O)C(NC(C)=O)C(=O)NCc2ccccc2Cl)cc1 (stereo unspecified)	-2.4	i	0.99	48	72	8	93
O=C1c2cc(F)ccc2OC2(CCNCC2)C12CC(c1ccccc1)=NO2 (stereo unspecified)	·	i	0.99	·	·	·	100
O=c1cc(O)c(-c2ccc(Cl)cc2)c(Cl)[nH]1	·	i	1	·	·	·	103
Cc1ccc(Nc2cc(C)c3c(O)cccc3n2)cc1C	·	i	0.93	·	·	·	101
Cc1ccc(NC(=O)COc2ccccc2CNC(C)(C)CC(C)(C)C)cc1	-1.5	i	0.82	-46	111	8	99
COc1cc(/C=C2\SC(=O)NC2=O)ccc1Oc1ccc([N+](=O)[O-])cc1[N+](=O)[O-]	·	i	0.94	·	·	1	100
CCOC(=O)C(CCCOc1cccc(OC)c1)C(=O)OCC	-2.5	i	0.98	-22	118	-10	101
O=C(Nc1ccn(Cc2c(F)c(F)cc(F)c2F)n1)c1ccc(COc2ccc(Cl)cc2Cl)o1	-1.1	i	0.81	19	121	-1	104
COCCCN=C1NN=C(c2cc(C)n(-c3ccccc3)c2C)CS1	-1.4	i	0.94	6	110	1	92
Cc1cccc(N(Cc2cc3ccccc3[nH]c2=O)S(C)(=O)=O)c1	·	i	0.9	67	154	4	104
CCOC(=O)C1CCN(S(=O)(=O)Cc2ccccc2)CC1	-1.2	i	0.97	·	·	-20	104
Cn1c(SCC(=O)NCc2ccc3c(c2)OCO3)nc2scc(-c3cccs3)c2c1=O	0.7	i	1.1	·	·	2	99
COc1ccc(Cn2c(S(=O)(=O)CC(N)=O)nc3ccccc32)cc1[N+](=O)[O-]	·	i	0.98	·	·	2	105
O=c1cc(O)c2c(=O)n(C3CCCCC3)c3ccccc3c2o1	-0.8	i	0.96	·	·	-11	100
CCOC(=O)C1CCN(C(=O)c2sc3nc(C)nc(N4CCC(C)CC4)c3c2C)CC1	-0.1	i	1	40	137	-3	106
Cc1ccccc1NC(=O)c1ccc2c(c1)C(=O)N(CCC(C)C)C2=O	-1.2	i	1	38	106	-2	89
CC1(C)CC(=O)C(C=NCc2cccnc2)=C(O)C1	-1.1	i	0.99	-29	74	1	108
O=C(/C=C/c1ccncc1)c1ccc2c(c1)OCCO2	·	i	0.74	·	·	14	103
COc1ccc(CN2CCNC(=O)C2CC(=O)NCc2cn3ccc(C)cc3n2)c(OC)c1 (stereo unspecified)	·	i	1	·	·	-1	102
Nc1nc(O)c(CC(=O)O)s1	·	i	1.2	·	·	·	89
CN(Cc1ccccc1)C(=O)COC(=O)/C=C/c1ccco1	·	i	1.1	-13	145	-3	94
CN(C)C(=S)N=Nc1[nH]c2ccccc2c1O	·	i	0.9	·	·	0	86

Some of the entries above, set out differently.
SMILES | GALR2 ag | HSV augment | HSV augment primary fold | INS promoter inh | INS promoter inh cell count | PKD1 kinase inh | RGS16-Gao HTS
O=C(CSCc1c(Cl)cccc1Cl)NCc1ccco1 | -1.4 | i | 0.88 | -235 | 89 | -4 | 96
CCOC(=O)C1CCN(C(=O)c2sc3nc(C)nc(N4CCC(C)CC4)c3c2C)CC1 | -0.1 | i | 1 | 40 | 137 | -3 | 106

Next section
SMILES	GALR2 ag	HSV augment	HSV augment primary fold	INS promoter inh	INS promoter inh cell count	PKD1 kinase inh	RGS16-Gao HTS
O=C(c1ccc(CNc2c(N3CCCC3)c(=O)c2=O)cc1)N1CC=C(c2ccccc2)CC1	·	i	0.95	·	·	·	96
O=C(CSc1ccc2nnc(-c3ccccn3)n2n1)Nc1nccs1	·	i	0.97	-18	191	-4	110
CN(C)CCNC(=O)C(=O)c1c(-c2ccccc2)cc2ccccn12	·	i	1.1	·	·	0	105
c1ccc(Cn2nnnc2C(c2cccs2)N2CCc3ccccc3C2)cc1 (stereo unspecified)	-2.9	i	0.96	-7	57	-9	109
COC(=O)c1ccc(S(=O)(=O)N2C3CCC2CC(NC(=O)NC2CCCCC2)C3)cc1 (stereo unspecified)	-2.2	·	·	17	95	2	97
CCCCOC(=O)Nc1nnc(SCCOc2ccc(C)cc2)s1	-1.0	i	0.99	·	·	-1	102
CN(Cc1ccc(F)cc1)Cc1nc(-c2cnccn2)no1	·	i	0.96	·	·	6	91
[O-]/C(=C(\C(=S)Nc1cccc2ccccc12)[n+]1ccccc1)c1ccc2c(c1)OCCO2	-2.7	i	1.1	-58	98	2	104
COc1ccc(C(=O)N/C(=C\c2cccc([N+](=O)[O-])c2)C(=O)Nc2cccc(C(=O)O)c2)cc1	·	i	0.96	29	134	9	101
CCOC(=O)C(C)N1C(=O)S/C(=C/c2cc(C)n(-c3ccncc3)c2C)C1=O (stereo unspecified)	·	i	0.96	·	·	-6	105
Cc1ccccc1OCC(=O)OC(C)CN1CCN(C)CC1 (stereo unspecified)	-0.6	i	1	·	·	-11	96

Source: PubChem BioAssay
